RecA intein inh = Mtb RecA intein splicing inhibitors, primary screen, biochemical, fluorescence, HTS; Protein RecA (Mycobacterium tuberculosis (strain ATCC 25618 / H37Rv)), P9WHJ3; cell-free RecA intein splicing; inhibition, %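 (about 9 µM by stock and volumes)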; 290,000 compounds, 0.75% hits; AID 2221, 2009; in the data active = inhibition above about 30%; inconclusive = no clear call, values can overlap the other calls;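 note: 0% = vehicle wells and 100% = reference inhibitor control wells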
Target sequence (P9WHJ3 whole entry, looked up): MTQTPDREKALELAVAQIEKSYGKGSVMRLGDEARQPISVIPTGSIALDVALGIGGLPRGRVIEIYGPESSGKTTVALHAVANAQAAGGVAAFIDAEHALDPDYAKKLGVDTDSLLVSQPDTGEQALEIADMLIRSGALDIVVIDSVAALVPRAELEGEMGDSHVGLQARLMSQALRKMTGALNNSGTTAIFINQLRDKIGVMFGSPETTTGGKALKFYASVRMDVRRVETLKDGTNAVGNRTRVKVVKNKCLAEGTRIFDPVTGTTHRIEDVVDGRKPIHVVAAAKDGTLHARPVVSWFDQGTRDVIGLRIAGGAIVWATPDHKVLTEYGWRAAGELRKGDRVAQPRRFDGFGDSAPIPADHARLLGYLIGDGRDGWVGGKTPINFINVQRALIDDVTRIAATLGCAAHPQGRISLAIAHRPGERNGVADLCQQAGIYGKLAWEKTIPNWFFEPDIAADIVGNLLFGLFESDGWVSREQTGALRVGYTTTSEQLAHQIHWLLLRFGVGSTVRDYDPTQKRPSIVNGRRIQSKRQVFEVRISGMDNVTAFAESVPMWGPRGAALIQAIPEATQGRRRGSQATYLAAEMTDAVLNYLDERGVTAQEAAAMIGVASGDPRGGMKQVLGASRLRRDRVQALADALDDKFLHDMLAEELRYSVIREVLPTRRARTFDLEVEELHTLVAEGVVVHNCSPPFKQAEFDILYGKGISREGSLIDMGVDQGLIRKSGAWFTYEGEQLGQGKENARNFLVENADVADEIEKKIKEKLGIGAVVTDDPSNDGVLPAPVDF
YopH PTP inh = YopH tyrosine phosphatase inhibitors, primary screen, biochemical, fluorescence Ex485/Em525. YopH tyrosine phosphatase [Yersinia enterocolitica]. inhibition, %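 (about 10 µM by stock and volumes)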. 140,000 compounds, 0.16% hits. AID 898, 2007;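 active = inhibition of 50% or more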;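 note: controls were vehicle for no effect and minimum signal wells for full effect; inactives centre near -20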
Mtb H37Rv = M. tuberculosis H37Rv growth inhibitors, H37Rv strain (AID 1626); M. tuberculosis H37Rv growth inhibition; higher % means a stronger effect; one-dose inhibition, % at 10 µM; IC50 in µM for titrated hits; 220,000 compounds, 0.95% hits;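 active = confirmed in a dose series; inconclusive = inhibition above 80% but not taken into the dose series; inactive = below 80% or under 30% at every dose of the series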;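 note: bacteria incubated seven days before Alamar blue readout; 0% = bacteria only wells and 100% = bacteria with antibiotic wells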
Arbovirus inh = antivirals against arbovirus infection, primary screen, cell-based, full library, 10K replicate subset. arbovirus infection cell-based antiviral screen. inhibition, % at 10 µM. 200,000 compounds, 0.37% hits. AID 1251, 2008;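 active = inhibition from about 30%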;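 note: bluetongue infection of BSR cells; cell survival read as ATP light after 72 h; 0% = infected wells without compound and 100% = uninfected wells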
Mtb betalactam = beta-lactam sensitization of Mtb H37Rv, H37Rv | M. tuberculosis H37Rv growth with meropenem, percent inhibition; hits of this screen are not shown here | inhibition, % at 25 µM | 330,000 compounds, 0.27% hits | AID 434955, 2010;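 active = about 74% or more and at least 40 points above the plate without the antibiotic, then above 30% in a dose series; inconclusive = first-round hits that could not be retested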;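 note: growth measured after seven days incubation then overnight dye step; 0% = bacteria only wells and 100% = bacteria with antibiotic; twin plates without the antibiotic show which effects depend on it; some results filed as inactive read as strong as hits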
Starred values were filed as active, the others as inactive; ? = inconclusive; nt = not tested or not shown. An excerpt; rates above refer to the full screens.

| compound | RecA intein inh | YopH PTP inh | Mtb H37Rv | Arbovirus inh | Mtb betalactam |
| --- | --- | --- | --- | --- | --- |
| CCOC(=O)CNC(=O)CSc1ncnc2c1cnn2-c1ccccc1 | -1.7 | 6 | nt | 13 | 15 |
| CC1CCN(c2ccc(-c3cccs3)nn2)CC1 | 0.8 | nt | nt | nt | ? |
| O=C(CCn1c(=S)[nH]c2ccccc2c1=O)NCCCN1CCOCC1 | -1.1 | -32 | -1% | 6 | -27 |
| COCCC(=O)N1CCC(Oc2ccc(C(=O)NCCn3cccn3)cc2)CC1 | -1.7 | nt | nt | nt | -1 |
| O=C(NNC(=S)NCc1ccccc1)c1cccnc1 | 1.2 | nt | nt | nt | 7 |
| CCOc1c2ccc(C(=O)NCc3ccccc3OC)cc2nn1CC | -0.6 | -42 | -8% | 2 | 12 |
| COc1ccc(OCCCC(=O)NCCc2ccc(OC)c(OC)c2)cc1 | -0.2 | -18 | 8% | 5 | -2 |
| O=C(O)c1cccc(N2C(=O)C3CC=CCC3C2=O)c1 (stereo unspecified) | -0.9 | -19 | -3% | 3 | -1 |
| CC1(C)CC(=O)c2c(oc3ccc(NS(=O)(=O)c4ccc(C(=O)O)cc4)cc23)C1 | nt | nt | 3% | 7 | 2 |
| CC(=O)Nc1ccc(S(=O)(=O)N2CCN(c3cc(C(F)(F)F)ccn3)CC2)cc1 | 0.4 | nt | -2% | nt | -6 |
| C/C=C/c1ccc(OCC(=O)N2CCc3cc(OC)c(OC)cc3C2)c(OC)c1 | 3.0 | nt | nt | nt | 2 |
| COc1ccc(CNC(=O)C(OC(=O)c2ccco2)c2ccccc2)cc1 (stereo unspecified) | -3.5 | nt | nt | nt | 2 |
| Cc1ccc(Cl)cc1N1CCN(C(=O)C(=O)N2CCCCC2)CC1 | -0.9 | nt | -1% | 0 | 0 |
| CCCN(CC(=O)Nc1ccccc1C)C(=O)Cc1coc2cc(C)ccc12 | 1.4 | nt | nt | nt | -16 |
| CCCS(=O)(=O)N1CCC(C(=O)NCCN2CCCC2)CC1 | 1.0 | 7 | -4% | -4 | -20 |
| Oc1ccccc1-c1nc(N2CCCC2)c2ccccc2n1 | nt | 0 | -7% | 5 | 1 |
| N=C1SC(CC(=O)Nc2ccccc2[N+](=O)[O-])C(=O)N1c1ccccc1 (stereo unspecified) | 4.3 | nt | 2% | nt | -9 |
| Cc1cc(C(=O)CSc2nnc(-c3cccnc3)n2-c2ccccc2F)c(C)n1C | 3.8 | -17 | -1% | -8 | 9 |
| CCOc1ccc(CNC(=S)N/N=C\c2ccc([N+](=O)[O-])cc2)cc1 | -2.8 | -34 | 3% | -5 | -17 |
| COC(=O)CC1C(=O)NCCN1C(=O)CSc1nc2cc(Cl)ccc2o1 (stereo unspecified) | -0.7 | nt | -8% | 0 | -1 |
| Cc1ccc(C(=O)NC(=C(Cl)Cl)S(=O)(=O)c2ccccc2)cc1 | 26 | -5 | 9% | -33 | -3 |
| CCCCCc1nc2c(=O)[nH]c3ccccc3c2o1 | -0.6 | -58 | -14% | -2 | 2 |
| O=C(NC1CCCC1)C(c1ccncc1)N(C(=O)c1ccco1)c1ccc(F)c(Cl)c1 (stereo unspecified) | 5.1 | nt | nt | nt | 1 |
| Cc1cc(C)cc(NC(=S)NCc2ccc3c(c2)OCO3)c1 | 5.7 | -14 | 4% | nt | -6 |
| O=C(NCc1cccs1)C1CCCN(c2ncccn2)C1 (stereo unspecified) | 1.5 | -19 | -2% | 4 | 3 |
| CC(NS(=O)(=O)c1ccc(CCC(=O)NCc2cccnc2)cc1)c1ccccc1 (stereo unspecified) | 1.3 | -17 | -7% | 0 | -24 |
| CC1=[N+](CC(=O)c2ccccc2)CCn2cccc21 | nt | nt | 0% | -9 | -9 |
| CCc1ccc(Nc2nnc(SCc3cc(=O)n4ccsc4n3)s2)cc1 | 4.1 | -5 | nt | 3 | -5 |
| CCN(CC)S(=O)(=O)c1ccc2nc(NC(=O)c3cccs3)sc2c1 | -1.4 | -23 | 5% | -15 | 46 |
| Cc1ccc(/C=C/C(=O)CCC(=O)O)cc1 | -1.1 | nt | 4% | 16 | -1 |
| Cc1cc(-c2ccc(C)c(S(=O)(=O)NCCCN3CCN(c4ccccc4)CC3)c2)on1 | 0.1 | nt | nt | nt | 26 |
| Cc1ccc(Oc2cc(C#N)c(C#N)cc2-n2nnc3ccccc32)cc1C | -5.2 | -23 | -4% | -3 | 1 |
| C#CCN1C(=O)C2C(C(=O)NC)C3C=CC2(O3)C1C(=O)NCc1ccc(OC)cc1 (stereo unspecified) | 0.5 | -56 | -12% | 6 | -16 |
| CNC(=O)/C(C#N)=C/c1c(N(Cc2ccccc2)Cc2ccccc2)nc2ccccn2c1=O | 3.9 | -22 | 0% | 26 | 7 |
| CCSC1=C(C#N)C(c2ccccc2Cl)C(C(=O)c2cccs2)C(O)(C(F)(F)F)N1 (stereo unspecified) | 8.0 | -15 | -3% | 3 | -5 |
| O=C(O)c1ccc(-c2nc3ccccc3s2)o1 | 2.1 | nt | 6% | nt | -6 |
| O=C(COc1ccccc1)Nc1ccc(NC(=O)c2ccco2)cc1 | -2.5 | nt | 18% | 3 | -3 |
| COc1ccc(N2CCCn3c2nc2c3c(=O)n(CCCc3ccccc3)c(=O)n2C)cc1 | 2.7 | -28 | nt | -2 | -12 |
| CCOC(=O)N1CCC(N2C(=O)c3ccc(C(=O)Nc4cccc(OC)c4)cc3C2=O)CC1 | -0.4 | nt | nt | nt | 4 |
| CC(C(=O)Nc1ccc(C(=O)O)cc1)N1C(=O)c2ccccc2C1=O (stereo unspecified) | -1.0 | -14 | 2% | 8 | -6 |

A stretch of the results above, as a working copy:
| compound | RecA intein inh | YopH PTP inh | Mtb H37Rv | Arbovirus inh | Mtb betalactam |
| --- | --- | --- | --- | --- | --- |
| C#CCN1C(=O)C2C(C(=O)NC)C3C=CC2(O3)C1C(=O)NCc1ccc(OC)cc1 (stereo unspecified) | 0.5 | -56 | -12% | 6 | -16 |
| CNC(=O)/C(C#N)=C/c1c(N(Cc2ccccc2)Cc2ccccc2)nc2ccccn2c1=O | 3.9 | -22 | 0% | 26 | 7 |

Continuation.
| compound | RecA intein inh | YopH PTP inh | Mtb H37Rv | Arbovirus inh | Mtb betalactam |
| --- | --- | --- | --- | --- | --- |
| CN(C)c1ccc(-n2cccc2)cc1 | -0.7 | nt | ? | nt | 74 |
| COc1cc(C2C(C#N)=C(N)N(c3ccc(F)cc3)C3=C2S(=O)(=O)CC3)ccc1O (stereo unspecified) | -5.5 | nt | -6% | 8 | 0 |
| O=C(c1ccc(Cl)c([N+](=O)[O-])c1)N1CCN(c2ccccn2)CC1 | -0.2 | -30 | 5% | 6 | -3 |
| CC(=O)Nc1ccc(NCC(O)COc2ccccc2)cc1 (stereo unspecified) | 5.5 | 7 | -1% | -2 | 0 |
| COc1cccc(C(=O)Nc2c3c(nn2-c2cccc(C)c2C)CS(=O)(=O)C3)c1OC | -1.1 | -51 | -4% | 2 | nt |
| COc1cc(C2Nc3ccccc3C(=O)N2NS(C)(=O)=O)c([N+](=O)[O-])cc1OC (stereo unspecified) | -1.3 | nt | nt | nt | 2 |
| Cc1ccc(Sc2ncnc(N)c2[N+](=O)[O-])cc1 | -1.5 | -39 | -1% | -5 | 1 |
| O=C(/C=C/c1cn(-c2ccccc2)nc1-c1cccnc1)N1CCCC1 | -1.4 | nt | 3% | 0 | nt |
| O=c1c(Cl)c(NC2CC2)cnn1-c1ccccc1 | 1.9 | nt | -3% | 1 | 7 |
| COC(=O)CN1C(=O)C(O)(CC(=O)c2ccc(C)o2)c2ccccc21 (stereo unspecified) | -0.6 | -18 | -13% | -6 | -10 |
| COc1ccc(OC)c(CN2CCCC(C(=O)N3CCCCC3)C2)c1 (stereo unspecified) | -2.2 | 18 | -9% | -2 | -3 |
| O=[N+]([O-])c1cccc(S(=O)(=O)NCCc2cn3ccccc3n2)c1 | 0.5 | nt | -1% | nt | -5 |
| O=C(O)c1ccc(-c2nnn(Cc3ccccc3F)n2)cc1 | -3.4 | nt | -1% | nt | -3 |
| O=c1ncn(-c2ccccc2C(F)(F)F)c2ncccc12 | nt | -29 | 12% | 0 | 4 |
| O=c1[nH]c(SCc2cccc([N+](=O)[O-])c2)nc2[nH]ncc12 | -0.4 | nt | -8% | -28 | 0 |
| Cc1ccc(N(C(C)C(=O)Nc2ccc(S(=O)(=O)N3CCOCC3)cc2)S(C)(=O)=O)cc1C (stereo unspecified) | 1.5 | -13 | -4% | 8 | -3 |
| COCc1cc(=O)[nH]c(/N=C(\N)Nc2ccc(C)cc2)n1 | nt | -8 | -10% | 1 | -13 |
| COc1ccccc1Oc1c(C)oc2c(CN(C)C)c(O)ccc2c1=O | -4.1 | 2 | 11% | -3 | -2 |
| COc1cccc(OC)c1CN1CCCC(C(=O)c2ccccc2SC)C1 (stereo unspecified) | 0.5 | nt | 7% | 4 | 5 |
| CCOc1cc(/C=C2/SC(=Nc3ccccc3)N(Cc3cccnc3)C2=O)ccc1OCC#N | 2.4 | 4 | -1% | -15 | 4 |
| COCCn1c(SCC(=O)NC2CCCC2)nnc1-c1ccncc1 | -0.8 | nt | nt | nt | -2 |
| CC(C)CC(C(=O)O)N1C(=O)C2C3c4ccccc4C(c4ccccc43)[C@@H]2C1=O (stereo partly specified) | 1.3 | nt | nt | nt | 5 |
| CCCCn1c(O)c(C(C)=NCc2cc(OC)cc(OC)c2)c(=O)[nH]c1=O | 1.8 | -23 | -2% | 1 | -3 |
| Cc1cc(C(=O)CCl)c(C)n1CCc1ccc(F)cc1 | 27 | nt | ? | -41 | 99 |

Reformatted: 3 of the compounds above.
> COCc1cc(=O)[nH]c(/N=C(\N)Nc2ccc(C)cc2)n1
  RecA intein inh: nt; YopH PTP inh: -8; Mtb H37Rv: -10%; Arbovirus inh: 1; Mtb betalactam: -13
> COc1ccccc1Oc1c(C)oc2c(CN(C)C)c(O)ccc2c1=O
  RecA intein inh: -4.1; YopH PTP inh: 2; Mtb H37Rv: 11%; Arbovirus inh: -3; Mtb betalactam: -2
> COc1cccc(OC)c1CN1CCCC(C(=O)c2ccccc2SC)C1 (stereo unspecified)
  RecA intein inh: 0.5; YopH PTP inh: nt; Mtb H37Rv: 7%; Arbovirus inh: 4; Mtb betalactam: 5

Next structures
| compound | RecA intein inh | YopH PTP inh | Mtb H37Rv | Arbovirus inh | Mtb betalactam |
| --- | --- | --- | --- | --- | --- |
| O=C1/C(=C/N(C(=O)c2ccco2)c2ccc(Br)cc2)Sc2ccccc21 | 0.0 | -15 | 0% | -11 | 1 |
| CCn1c(COc2cccc(C)c2)nnc1SCC(=O)Nc1cccc(C(=O)O)c1 | -7.1 | -25 | -2% | -4 | -1 |
| COc1ccc(Cl)cc1NC(=O)CCCC(=O)c1ccccc1 | 0.4 | nt | nt | nt | -6 |
| COc1cc(C(=O)NCc2nnc(SCC(=O)NC3CCCC3)o2)cc(OC)c1OC | -3.7 | nt | nt | nt | -7 |
| COc1ccc(/C=C/c2cc(=O)c3cc(Cl)ccc3o2)cc1 | 2.8 | -11 | 2% | -2 | ? |
| O=C1NC(=O)/C(=C\c2ccc(O)cc2O)S1 | -6.1 | nt | -3% | 2 | -2 |
| O=C(Oc1ccccc1)c1ccc2nccnc2c1 | 4.0 | -42 | 31% | 10 | 86 |
| NC(=O)CC(NC(=O)c1ccccc1)c1ccc(N2CCN(c3ccc(F)cc3)CC2)c([N+](=O)[O-])c1 (stereo unspecified) | -2.2 | nt | nt | nt | 15 |
| Cc1ccccc1-n1nc(C(=O)O)cc1-c1ccccc1 | -0.5 | -38 | 10% | 16 | 20 |
| COC(=O)C1=CN(Cc2ccc(F)cc2)C=C(C(=O)OC)C1c1ccc(O)c(OC)c1 | -1.7 | nt | nt | nt | 0 |
| Cc1cc(OCC(C)C)ccc1/C(O)=C1/C(=O)C(=O)N(Cc2cccnc2)C1c1ccncc1 (stereo unspecified) | 1.3 | -42 | -9% | 11 | -21 |
| CCc1ccc(/C=C/C(=O)c2c(C)cc(C)[nH]c2=O)cc1 | -0.5 | -24 | 9% | -20 | 33 |
| CC(COC(=O)c1ccccc1)(COC(=O)c1ccccc1)/[N+]([O-])=C/c1ccccc1 | -3.9 | 6 | 6% | 8 | -4 |
| COc1ccc(C(=O)N/N=C/c2ccc(OC)c(COc3ccc(F)cc3F)c2)cc1 | 2.6 | nt | nt | nt | 49 |
| COc1ccnc(N=CNOCc2ccc(Cl)cc2)c1C#N | -0.6 | nt | nt | nt | -8 |
| COc1ccc(NC(=O)c2oc3ccccc3c2NC(=O)C(C)(C)C)cc1 | nt | -49 | 5% | -1 | -7 |
| Cc1ccc(CNS(=O)(=O)c2cccc3nsnc23)cc1 | -1.3 | nt | 0% | -8 | 1 |
| Clc1cc(I)cc(Cl)c1NC1=NCCN1 | 0.9 | nt | -6% | nt | 0 |
| O=C(CCC(=O)c1cccs1)OCc1nnc(-c2ccccc2)o1 | -1.5 | -35 | -4% | 4 | -11 |
